HSD17B inh: inhibitors of human HSD17B10 dehydrogenase | Q99714 | recombinant HSD17B10, NADH fluorescence kinetic; many of its hits are not listed in these tables | Potency, µM (doses to about 57.1 µM), for inactives: top-dose activity change, negative = inhibition, hits mostly inhibitors | actives 7.6% (n = 75,000); active = well fitted inhibition curve with a large enough effect; inconclusive = small, poorly fitted or top-dose-only effect; inactive = no such curve, though single readings can be large or run the other way;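 note: the protocol describes HADH2 (HSD17B10) and not the HSD17B4 of the title; nearly all actives have a fitted effect of over 70% in size; most hits overshoot -100% by far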
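His-tagged E. coli-expressed HADH2 at 20 nM in 100 mM Tris-HCl pH 9.0 with 0.01 % Tween-20, preincubated 15 min with compound at room temperature. Reaction with 1 mM NAD+ and 90 uM beta-hydroxybutyryl coenzyme A; NADH fluorescence (360/450 nm) read kinetically over 4 min, last minus first point.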
An asterisk follows results filed as active; ? = inconclusive; & = joins results of further samples; [ ] = remark or other dose. % is set by controls: 0 for no effect and ±100 for the full control effect; potency is the fitted concentration of half-maximal effect. The list is partial; count on the stated rates, not on these rows.

SMILES	HSD17B inh
CCCc1[nH]nc2c1C(/C(C)=C/c1ccccc1)C(C#N)=C(N)O2 (centres undefined)	-12%
CCN1CCC2(CC1)C(C#N)=C(N)Oc1c2sc2nc(C)cc(C)c12	62%[activator]
COCCN1C(=O)c2oc3ccccc3c(=O)c2C1c1cccc(O)c1 (centres undefined)	-21%
CCCn1c(=C(C#N)C#N)s/c(=C2\C=Cc3ccccc3N2CC)c1=O	4%
C[C@]12CCC3c4ccc(OC(=O)c5ccccc5)cc4CCC3C1CCC2=O (some centres undefined)	7%
O=C(Cn1c(C(=O)NCCCN2CCOCC2)cc2sccc21)c1ccccc1	5%
CN1CCN(CCCNC(=O)c2ccc3c(c2)N(Cc2ccccc2)CCS3)CC1	25µM*
O=S(=O)(O)c1ccc(-c2nnc(-c3ccccn3)nc2-c2ccc(S(=O)(=O)O)o2)o1	2%[11.4 µM]
CC(=NCCc1ccccc1)C1=C(O)COC1=O	14%
COCCNC(=O)c1ccccc1-c1ccccc1C(=O)O	-5%
COc1ccc(CNC(=O)Nc2ccc(OC)cc2)cc1	19%
Cc1onc(-c2ccccc2)c1C(=O)N1CCCc2ccccc21	-2%
CCN(CC)S(=O)(=O)N1CCC(C(=O)NC2CCCC2)CC1	12%
O=C(O)CCSSCCC(=O)O	3%
CC(C)N1CCc2c(sc(NC(=O)c3ccc(S(=O)(=O)N4CCOCC4)cc3)c2C(N)=O)C1	-11%
CCC(Sc1nccn1C)C(=O)Nc1cccc2ccccc12 (centres undefined)	4%
Cc1noc(C)c1-c1nc(NC2CC2)c2ccccc2n1	-3%
Cc1cc(Nc2ccc(C(C)C)cc2)n2ncnc2n1	-2%
COc1ccc(CNc2nc3nc(C)c(Cl)c(C)n3n2)cc1OC	3%
CC12CCC(C(=O)n3c1nc1ccccc13)C2(C)C (centres undefined)	7%
Cc1nn(-c2nnc(C)c(=O)[nH]2)c(C)c1SCC(=O)Nc1ccc(C(C)C)cc1	4%
COc1ccc(-n2c(Cc3cccn3C)nnc2SCC(=O)Nc2ccc(C(C)=O)cc2)cc1	-1%
Cc1ccc(O)c(N=Nc2ccccc2)n1	?
O=C(CN1C(=O)c2ccccc2S1(=O)=O)NCCSc1ccccc1	2%
O=C(CN1CCN(C(=O)c2c(F)cccc2F)CC1)Nc1ccccc1F	5%
Cc1ccc(-n2ncc3c(NCCCn4ccnc4)ncnc32)c(C)c1	2%
COc1ccc(C(=O)N2CCN(c3ccc(C)c(C)c3)CC2)cc1OC	-1%
CCC(C)NC(=O)C1=C(C)C(=O)OC12CCC(C)CC2 (centres undefined)	3%
Cc1cc(N2CCOCC2)cc(C)[n+]1[O-]	-8%
CCN(CCCNC(=O)c1ccc(N2CCCC2=O)cc1)c1cccc(C)c1	5%
CCCCn1c2c(c(=O)n(C)c1=O)C(c1ccc(OC)cc1)N1CCCCCC1=N2 (centres undefined)	1%
O=C(OCCN1CCOCC1)C(c1ccccc1)c1ccccc1	12%
CC(=C(CCOP(=O)(O)O)SC(=O)c1ccccc1)N(C=O)Cc1cnc(C)nc1N	-4%
CCCOc1ccc(C2C(C(=O)c3ccc(C)o3)=C(O)C(=O)N2CCN2CCOCC2)cc1OC (centres undefined)	6%
COCCNC(=O)CCn1nc(-c2ccc(Cl)cc2)ccc1=O	-6%
Cc1ccc(NC(=O)CC(=O)NCCN2CCOCC2)cc1	2%
CN(C1CCCCC1)S(=O)(=O)c1ccc(S(=O)(=O)N2CCN(CCC#N)CC2)cc1	3%
O=S(=O)(Cc1ccccc1)N1CCc2ccccc21	-1%
CCC(=O)OC1(C#CCOc2ccc(OC)cc2)CCN(C)CC1	5%
CC(C)Nc1nc(-c2ccccc2)nc(-n2ccnc2)n1	5%
CC(=O)N1CCc2cc(Br)cc(S(=O)(=O)NCCCN3CCCC(C)C3)c21 (centres undefined)	-1%
O=C(c1ccc(S(=O)(=O)N2CCOCC2)cc1)N(Cc1ccco1)Cc1cccs1	4%
O=C(NCc1ccccc1)c1ccc(/C=N/O)nc1	2%
COc1cccc(NC(C)C(=O)N2CC(C)OC(C)C2)c1 (centres undefined)	-2%
COc1ccc(N2CCN(c3nc4c(c(=O)[nH]c(=O)n4C)n3Cc3cccc(C)c3)CC2)cc1	-3%
COc1ccc(CCNC(=O)CCS(=O)(=O)c2cccc3nsnc23)cc1OC	-2%
c1ccc2c(c1)CN1CCCC1=N2	-3%&0%
Cc1ccc2c(c1)N(CCC(=O)NCC1CCCO1)C(=O)CO2 (centres undefined)	-4%
Cc1ccc(OC(=O)CCC(=O)OCCCC(F)(F)C(F)(F)F)cc1	-9%
CCOc1ccc(OCC)c(NC(=O)CSc2nc3c(c(=O)n(C)c(=O)n3C)n2CC)c1	8%

(further entries)
SMILES	HSD17B inh
Cc1cccc(C)c1NC(=O)N1CCC(N2CCCCC2)CC1	7%
CC(=O)C1=C(O)C(=O)N(Cc2ccccc2)C1c1cccs1 (centres undefined)	-11%
O=c1c2[nH]c3ccccc3c2ncn1C1CCCCC1	?
Oc1ccccc1Nc1ncnc2c1oc1ccccc12	1%
CCCCN(CC)CCNC(=O)C1c2cc(OC)c(OC)cc2C(=O)N2CCc3ccccc3C12 (centres undefined)	-7%
COCCCN(C(=O)c1cccnc1SC)c1c(N)n(Cc2ccccc2)c(=O)[nH]c1=O	0%
C[C@@](N)(Cc1c[nH]c2ccccc12)C(=O)O	6%[11.4 µM]
Cc1cccc(N(CC(N)=O)C2SC(=O)N(c3ccccc3)C2=O)c1 (centres undefined)	-5%
CCOC(=O)N1CCN(C(=O)Nc2ccc3nc(C)c(C)nc3c2)CC1	32µM*
COc1ccc(C(=O)CSc2cc(C)nc3nc(C)nn23)cc1OC	-6%
CCc1ccc2nc3c(c(C(=O)O)c2c1)CCC3	1%
NCCCc1ccc2oc3ccccc3c2c1	0%[11.4 µM]
Cc1nc2ccccc2n1S(=O)(=O)c1ccc(S(=O)(=O)N2CCCCCC2)cc1	2%
COc1cccc(-c2ccc3ncnc(NCc4cccnc4)c3c2)c1	32µM*
CN(C)c1cccc(N=C2C=C(N3CCOCC3)CC(C)(C)C2)c1	-22%
O=C(NCC1CCCO1)C1CCN(c2ccc(S(=O)(=O)N3CCCC3)cc2)CC1 (centres undefined)	-1%
CCC(=O)[C@@H](c1ccccc1)c1ccccn1	0%[11.4 µM]
CO[C@@]12C[C@@H](COC(=O)c3cncc(Br)c3)CN(C)[C@H]1Cc1cn(C)c3cccc2c13	2%
CCn1nc(NC(=O)c2ccncc2)c2cc3ccccc3nc21	-3%
c1n[nH]c(NC2=NCCC2)n1	6%
COc1ccc(CSc2nc(C)cc(=O)[nH]2)cc1Br	8%
COc1ccc(S(=O)(=O)N(C)CC(=O)O)cc1C	3%
NC(=O)C1CCN(C(c2ccccc2Cl)c2nnnn2CC2CCCO2)CC1 (centres undefined)	-3%
COC(=O)c1cc(NC(=O)CC2NCCNC2=O)cc(C(=O)OC)c1 (centres undefined)	-10%
Cn1c(=O)c2c(nc(N3CCCCC3)n2CCCNC2=NCCCC2)n(C)c1=O	-3%
Cc1ccc(N2CCN(CCc3nc4cc(NS(C)(=O)=O)ccc4n3C)CC2)cc1	-10%
COCCn1c(=O)c(C)nc2cnc(OCc3ccccc3)nc21	8%
CCOC(=O)N1CCN(c2ncnc3c2oc2nc(C(C)C)c4c(c23)CCC4)CC1	-9%
Cc1ccc(NC(=O)CSCC(=O)Nc2ncc3c(n2)CC(c2ccco2)CC3=O)cc1 (centres undefined)	0%
NC(=O)NCCS[C@H]1CCCC[C@@H]1O	10%[11.4 µM]
O=C(O)CCCSc1ccccc1	17%[11.4 µM]
c1ccc(Nc2ccccc2Nc2ccccn2)nc1	-6%
NC(=O)c1ccsc1NC(=O)COC(=O)Cc1ccsc1	2%
CN(c1cccc(NC(=O)COc2ccccc2)c1)S(C)(=O)=O	-3%
CC(C)CN(C(=O)COC(=O)c1cc2c(s1)CCC2)C1CCS(=O)(=O)C1 (centres undefined)	?
COC(=O)CN1C(=O)C2(OCCCO2)c2cc(Br)ccc21	-6%
COc1ccc(CNC(=O)NCc2ccc(OC)c(OC)c2)cc1OC	5%
CS(=O)(=O)c1ccc2nc(NC(=O)Cc3ccccc3)sc2c1	7%
CCSc1nnc(NC(=O)c2ccc(C)o2)s1	-7%
O=C(COC(=O)CN1C(=O)C2CC=CCC2C1=O)Nc1cc(C(F)(F)F)ccc1N1CCOCC1 (centres undefined)	-10%

6 structures out of the list, sorted by SMILES length, smallest number first.
SMILES	HSD17B inh
CCSc1nnc(NC(=O)c2ccc(C)o2)s1	-7%
NC(=O)c1ccsc1NC(=O)COC(=O)Cc1ccsc1	2%
COC(=O)CN1C(=O)C2(OCCCO2)c2cc(Br)ccc21	-6%
COc1ccc(CNC(=O)NCc2ccc(OC)c(OC)c2)cc1OC	5%
CS(=O)(=O)c1ccc2nc(NC(=O)Cc3ccccc3)sc2c1	7%
CC(C)CN(C(=O)COC(=O)c1cc2c(s1)CCC2)C1CCS(=O)(=O)C1 (centres undefined)	?

New compounds follow
SMILES	HSD17B inh
Cc1ccc2cc(CN(CC3CCCO3)S(=O)(=O)c3cccc4nsnc34)c(=O)[nH]c2c1 (centres undefined)	-4%
COc1ccc(-n2ccnc2SCC(=O)Nc2ccccc2)cc1	-7%
CC1CCN(c2nc(-c3ccccc3)c(C#N)c(=O)[nH]2)CC1	-1%
O=C(Cn1cnc2c(cnn2-c2ccccc2)c1=O)N1CCOCC1	7%
C=CCc1cccc2cc(C(=O)NCc3cccnc3)c(=O)oc12	?
COc1ccc(OC)c(C(=O)CSc2nc3ncccc3[nH]2)c1	-3%
O=C(Nc1nccs1)c1ccc(S(=O)(=O)c2ccccc2)cc1	2%
O=C(NC1CS(=O)(=O)CC1NCc1ccco1)c1ccccc1 (centres undefined)	7%
CC(C)Oc1cccc(C(=O)Nc2ccccc2N2CCOCC2)c1	-3%
COc1ccc(-n2nnnc2SCC(=O)c2ccc(OC)c(OC)c2)cc1	-3%

Gathered by group, those above with a COOH group
SMILES	HSD17B inh
COCCNC(=O)c1ccccc1-c1ccccc1C(=O)O	-5%
O=C(O)CCSSCCC(=O)O	3%
C[C@@](N)(Cc1c[nH]c2ccccc12)C(=O)O	6%[11.4 µM]
CCc1ccc2nc3c(c(C(=O)O)c2c1)CCC3	1%
COc1ccc(S(=O)(=O)N(C)CC(=O)O)cc1C	3%
O=C(O)CCCSc1ccccc1	17%[11.4 µM]

(further entries)
SMILES	HSD17B inh
CCCCC(=O)N1CC2(C)CN(C(=O)CCCC)CC(C)(C1)C2=O	8%
CC(=O)OC[C@@H]1O[C@@H](O/N=C2/C[C@@H](O)[C@@H](O)[C@@H]3[C@@H]4C(=O)N(c5cccc(Oc6ccccc6)c5)C(=O)[C@H]4CC[C@@H]23)[C@H](OC(C)=O)[C@H](OC(C)=O)[C@@H]1OC(C)=O	1%[11.4 µM]
Cc1cc2cc3c(=O)[nH]c(=O)[nH]c3nc2cc1C	3.2µM*
COc1ccc2c(c1)CC(C1(O)C(=O)N(C)c3ccccc31)C2=O (centres undefined)	11%
COc1ccc(S(=O)(=O)N(C)C2CCN(C)CC2)cc1	5%
CC(C)c1cc(C(=O)Nc2cccnc2)no1	2%
CC(C(=O)NCc1ccco1)n1nc(-c2ccccc2)c2cc(Cl)ccc21 (centres undefined)	358%[activator]
COC(=O)c1ccccc1NC(=O)C1CCN(C(=O)c2cc(OC)cc(OC)c2)CC1	?
COc1cccc(N2C(=O)C3ON(c4ccccc4)C(c4cccs4)C3C2=O)c1 (centres undefined)	-11%
O=C(CSc1nnc(Nc2ccccc2)s1)NCc1ccco1	1%
CN1CCC(N(C)CC(=O)Nc2cccc(Oc3ccccc3)c2)CC1	-1%
C=CCN1C(=O)C(O)(CC(=O)c2ccc(Cl)cc2)c2ccccc21 (centres undefined)	-10%
CC1CC(C)CN(S(=O)(=O)c2ccc(C(=O)NCCCn3ccnc3)cc2)C1 (centres undefined)	5%
CC(C)(C)c1ccc(S(=O)(=O)NCCOCC(F)(F)C(F)F)cc1	-3%
Cc1nc2ccccc2c(=O)n1C1CCCCCC1	0%
CC(C)CCCNc1nc(N2CCOCC2)nc(N2CCOCC2)n1	-4%
CN(CCO)C(=O)c1cccc2c1-c1ccccc1C2=O	0%
CCCCCn1c(Sc2nc3ccccc3s2)nc2c1c(=O)[nH]c(=O)n2C	-4%
CN(CC(=O)NCCN1CCN(Cc2ccccc2)CC1)S(=O)(=O)c1cccc2nsnc12	1%
N#Cc1ccc(C23CC4(C2)[C@H](CN(P(=O)(c2ccccc2)c2ccccc2)[C@@H]4c2ccccc2)C3c2ccc(Cl)nc2)cc1 (some centres undefined)	-1%
CCCCOc1ccc(S(=O)(=O)Nc2cc(OC)ccc2OC)cc1	-13%
CCOC(=O)c1cc2c(ccn2-c2ccc(F)cc2)n1CC(=O)N1CCN(C(=O)c2ccco2)CC1	32µM*
CC1=CC(C)(C)N(C(=O)CN2C(=O)c3ccccc3C2=O)c2ccccc21	-5%
Cc1cc(C(=O)COc2ncnc3sccc23)c(C)n1C	5%

Reformatted with each value named: entries from further up.
Molecule: CCCCOc1ccc(S(=O)(=O)Nc2cc(OC)ccc2OC)cc1
  HSD17B inh: -13%
Molecule: CCOC(=O)c1cc2c(ccn2-c2ccc(F)cc2)n1CC(=O)N1CCN(C(=O)c2ccco2)CC1
  HSD17B inh: 32µM*
Molecule: CC1=CC(C)(C)N(C(=O)CN2C(=O)c3ccccc3C2=O)c2ccccc21
  HSD17B inh: -5%
Molecule: Cc1cc(C(=O)COc2ncnc3sccc23)c(C)n1C
  HSD17B inh: 5%

Quoted from the listing.
Cc1cc(C(=O)COc2ncnc3sccc23)c(C)n1C @ HSD17B inh: 5%
CCCCOc1ccc(S(=O)(=O)Nc2cc(OC)ccc2OC)cc1 @ HSD17B inh: -13%
CC1=CC(C)(C)N(C(=O)CN2C(=O)c3ccccc3C2=O)c2ccccc21 @ HSD17B inh: -5%

High-throughput results (PubChem BioAssay)
